# Screens deposited in PubChem by National Center for Advancing Translational Sciences (NCATS).
# Rango-impB inh – qHTS Assay for Inhibitors of Rango (Ran-regulated importin-beta cargo) - Importin beta complex formation; 340,000 tested, 0.031% active; AID 540263, 2011; Importin subunit beta-1 (Homo sapiens), Q14974; Rango CFP/YFP FRET sensor + importin beta, 45 min; Potency, µM (doses to about 92.2 µM), for the others: at the highest dose inhibition of complex formation; active = rising FRET ratio curve, often small or poorly fitted; inconclusive = mostly compound fluorescence or quenching in the first reads; inactive = flat curves in all reads;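 also: potency is read from the fitted curve at half-maximal effect; 0% = DMSO wells and 100% = buffer wells lacking importin beta; nearly all actives have a fitted effect of over 15% in size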
#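 FRET biosensor (snurportin 1 IBB flanked by EYFP and cerulean), 50 nM, with compound 5 min, then 0.125 microM importin beta in PBS, 1 mM DTT, 0.02% Tween-20, 0.1% BSA. CFP/YFP ratio read after 45 min at room temperature; pre-read flags interference.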
# Rango release inh – qHTS Assay for Inhibitors of RanGTP induced Rango (Ran-regulated importin-beta cargo) - Importin beta complex dissociation; Snurportin-1 (Homo sapiens) + GTP-binding nuclear protein Ran (Homo sapiens) + Importin …; Biochemical FRET Rango-importin beta, RanGTP-induced dissociation; Potency, µM (doses to about 46.1 µM), inactives show at the highest dose activity change, negative = inhibition; 340,000 tested, 0.071% active; active means falling FRET ratio curve, often poorly fitted, with flat reads before Ran was added; inconclusive means other falling curves, or compound fluorescence or quenching; inactive means flat or rising ratio curve;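 also: potency is read from the fitted curve at half-maximal effect; % of control where 0% means no effect; nearly all actives have a fitted effect of over 45% in size; -100% = wells without RanGTP and RCC1; the record marks most hits as doubtful in a second field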
#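 Two FRET readings bracket the reaction: one 5 min after compound meets Rango–importin beta, another 45 min after RanGTP-RCC1 (0.6 uM Ran, 0.2 uM RCC1, 2 mM GTP) is added. Only the second defines inhibition.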
# miR-21 FLuc – qHTS Assay for Modulators of miRNAs and/orActivators of miR-21; AID 2288, 2010; 340,000 tested, under 10 active; Potency, µM (series often up to 38.3 µM), without a hit: top-dose reporter change, positive = more light; HeLa miR-21 FLuc reporter, luciferase, 48 h; active = well fitted rising curve with a large enough effect; inconclusive = small, poorly fitted or top-dose-only effect; inactive = no such curve, though single readings can be large or run the other way;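 also: % of control where 0% means no effect; miR-21 action dims this reporter so a rising signal means less miR-21 action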
#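 Using DMEM plus 10% FBS, HeLa miR-21-FLuc cells are incubated with test compounds (final up to about 40uM) for 48 hours; firefly luciferase signal is then imaged following reagent-mediated lysis.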
# GLA inh pH 4.5 – qHTS Assay for Inhibitors of Human alpha-Galactosidase at pH 4.5; purified enzyme, 4-MU-alpha-Gal fluorescence, pH 4.5; activity change, negative = inhibition, % at 105 µM; 230,000 tested, under 10 active; Alpha-galactosidase A (Homo sapiens), P06280; inconclusive = small, poorly fitted or top-dose-only inhibition, or a rising curve; inactive = flat fitted curve, though single readings scatter; no compound was filed as active;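 also: 0% = full activity with enzyme and -100% = basal without enzyme; dose as in the result columns while the protocol names 77 µM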
# Target sequence (P06280 whole entry, looked up): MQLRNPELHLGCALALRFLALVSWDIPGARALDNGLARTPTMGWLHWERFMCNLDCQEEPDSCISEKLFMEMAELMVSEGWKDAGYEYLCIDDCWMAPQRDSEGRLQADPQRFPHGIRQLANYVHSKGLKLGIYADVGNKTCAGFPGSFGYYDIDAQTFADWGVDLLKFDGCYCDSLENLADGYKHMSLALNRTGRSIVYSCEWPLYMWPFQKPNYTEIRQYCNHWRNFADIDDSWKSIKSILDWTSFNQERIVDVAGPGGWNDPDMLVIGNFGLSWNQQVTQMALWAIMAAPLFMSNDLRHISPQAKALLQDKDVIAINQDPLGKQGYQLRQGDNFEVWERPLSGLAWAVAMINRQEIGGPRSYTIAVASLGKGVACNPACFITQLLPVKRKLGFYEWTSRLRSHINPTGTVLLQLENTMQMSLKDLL
# An asterisk follows results filed as active; ? = inconclusive; · = not tested or not shown; & = joins results of further samples.
mol,Rango-impB inh,Rango release inh,miR-21 FLuc,GLA inh pH 4.5
Cc1ccc(NC(=S)NCCC(c2ccccc2)c2ccccc2)c(C)c1,0.0%,-13%,6%,-5
OCCC1CN(CC2CCCCC2)CCN1CC1CCCCC1 (centres undefined),3.8%,2%,1%,·
Cc1ccc(NC(=O)C2COc3ccccc3O2)c(C)c1 (centres undefined),-4.5%,0%,-52%,·
Cc1nc(N/N=C/c2cccc(F)c2)cc(N2CCOCC2)n1,2.7%,-12%,6%,·
CCc1ccccc1NC(=O)CCc1c(C)nn(-c2ccc(N3CCOCC3)nn2)c1C,-0.3%,12%,-3%&4%,·
COc1ccc(-n2nc(C(=O)NCC(=O)N3CCOCC3)c3ccccc3c2=O)c(OC)c1,-3.3%,11%,-7%,·
Cc1cc(C)n(-c2nc3ccccc3n3cnnc23)n1,4.6%,4%,-4%,4
Cc1ccc(S(=O)(=O)n2ccnc2)cc1C,-1.4%,-3%,-6%,2
Cc1ccccc1NC(=O)Cn1c(=O)n(-c2ccc(CC(=O)NCC3CCCO3)cc2)c(=O)c2ccccc21 (centres undefined),3.1%,1%,-4%&-1%,-4
S=C(NCCOCCOCCNC(=S)Nc1ccccc1)Nc1ccccc1,-3.2%,1%,6%,-19
N#Cc1ccc(C2=CC(=O)C[C@H](c3ccc4c(c3)OCO4)C2)cc1,-4.4%,0%,·,·
CCCN1CCN(C(=O)Cn2nc(C)n3c(cc4sccc43)c2=O)CC1,-1.6%,18%,-9%,·
C=CCCC1(C)C(=O)N(c2ccccc2)c2ccccc21 (centres undefined),0.1%,12%,9%,0
N#Cc1nc(-c2ccc(OCc3ccccc3)cc2)oc1NCCN1CCOCC1,·,·,-1%,1
COc1cccc(/C(C)=N/NC(=O)c2cc(-c3cccnc3)nc3ccccc23)c1,-0.9%,-9%,-6%,0
Cc1nn2cc(-c3ccccc3)nc2[nH]c1=O,?,?,-19%,4
COc1ccc(Cn2nnnc2C(c2ccccn2)N2CCN(c3cc(Cl)ccc3C)CC2)cc1 (centres undefined),-1.3%,-10%,14%,-14
Cc1ccc(N2CCN(C(=O)Nc3cccc([N+](=O)[O-])c3)CC2C)cc1 (centres undefined),3.0%,6%,20%,-17
C/C(CC(=O)Nc1ccc(Cl)cc1Cl)=N\NC(N)=S,?,-9%,-3%,7
COc1ccc(C2CC(C(F)(F)F)n3ncc(C(=O)O)c3N2)cc1OC (centres undefined),1.5%,-7%,-13%,4
CC(C)c1ccc(OCCCCCN2CCOCC2)cc1,0.8%,-1%,-30%,·
Cc1ccc(-n2c(=S)[nH]c3nc4c(cc3c2=O)COC(C)(C)C4)cc1,5.2%,37%,-5%,-1
Cc1c(N2C(=O)c3cccc4cccc(c34)C2=O)c(=O)n(-c2ccccc2)n1C,-0.2%,2%,0%,2
O=C(N/C(=C\c1ccco1)C(=O)N1CCC(O)CC1)c1ccccc1,3.0%,21%,-1%,·
CCn1c(=O)cc(OCC(=O)NCCc2cccc(C)c2)c2ccccc21,-2.0%,-7%,0%,1
Cc1cc(-c2ccccc2)nc(SCc2ccc(C(=O)O)cc2)n1,-2.7%,18%,-11%,·
CCc1cc2c(COC(=O)c3cccc(S(C)(=O)=O)c3)cc(=O)oc2cc1O,?,?,4%,·
Cc1ccc(-n2c(N)c(C(=O)Nc3c(C)n(C)n(-c4ccccc4)c3=O)c3nc4ccccc4nc32)cc1C,·,·,-7%,-6
CCN(CC)CCCn1c2c(c(SCC(=O)Nc3cc(OC)cc(OC)c3)nc1=O)CCC2,0.5%,2%,·,·
Cc1ccc(Cl)c(NC(=O)COC(=O)CNS(=O)(=O)/C=C/c2ccccc2)c1Cl,6.7%,-6%,1%,4
O=S(=O)(c1cccc2ccccc12)n1nnc2ccccc21,1.9%,25%,0%,0
Clc1ccccc1/C=C/c1nc(-c2ccccn2)no1,7.9%,-1%,?,4
CCOC(=O)Cc1cnc(NC(=O)Cn2nnc(-c3ccc(OCC)cc3)n2)s1,-3.0%,1%,-4%,11
CC(C)(C)OC(=O)N1CCCC(C(=O)Nc2cccc(C(=O)NCCCCc3ccccc3)c2)C1 (centres undefined),1.0%,-5%,·,·
C=C(C)CN(CC)C(=O)CCc1nnc(CCc2c[nH]c3ccccc23)o1,1.5%,8%,-1%,4
CCc1ccccc1-n1nnnc1-c1cnccc1C(F)(F)F,?,-25%,8%,-2
CCOc1ccc(C(=O)CN2CCN(S(=O)(=O)c3ccc(Br)cc3)CC2)cc1,-2.3%,0%,-6%,-2
Cc1cc(=O)oc2c(C)c(OCC(=O)N3CCN(C(=O)C4COc5ccccc5O4)CC3)ccc12 (centres undefined),?,7%,26%,·
COc1cccc(NC(=O)CN(c2ccc3c(c2)OCO3)S(C)(=O)=O)c1,-4.2%,5%,-8%,-3
CCOC(=O)C1CCN(C(=O)C2CCN(c3nn4c(=O)cc(C)nc4s3)CC2)CC1,-4.5%,-10%,1%,·
O=S(=O)(c1ccc(S(=O)(=O)N2CCCC2)cc1)N1CCCCCC1,4.7%,-2%,-1%,7
Cc1ccc(S(=O)(=O)N2CCN(C(=O)COC(=O)/C=C/c3ccccc3[N+](=O)[O-])CC2)c(C)c1,-3.3%,6%,·,·
COc1cccc(/C=C2/SC(=S)N(CC(=O)NNC(=O)c3ccccc3OC)C2=O)c1,-3.9%,7%,-1%,·
COc1ccc(CCNC(=O)COc2ccc(N(C)S(=O)(=O)c3ccc(Cl)cc3)cc2)cc1,3.0%,-1%,3%,-3
COCCN(Cc1cccs1)S(=O)(=O)c1csc(C(N)=O)c1,0.8%,-12%,1%,·
CCC(=O)Nc1c(S(=O)(=O)c2ccccc2)c2nc3ccccc3nc2n1C(C)c1ccccc1 (centres undefined),?,?,-4%,19
CC(=O)Nc1nc(=O)c2ccccc2s1,2.4%,7%,1%,4
CCOc1ccc(CC(=O)Nc2c3c(nn2C(C)(C)C)CS(=O)(=O)C3)cc1,-0.3%,-6%,-1%,·
CCCn1c(SCc2nc(-c3cccs3)no2)nnc1-c1ccncc1,?,12%,-10%,6
O=C(O)[C@H](Cc1ccccc1)NC(=O)N1CCCCCC1,1.1%,0%,0%,·
CCOC(=O)CN1C(=O)N[C@@H](CCc2ccccc2)[C@H](C(C)=O)[C@H]1C,4.2%,14%,·,-3
CC(O)[C@H]1CN=C(N)N1CCCCC1CCCCC1 (some centres undefined),-1.9%,0%,10%,5
O=C(OCC(=O)c1ccc[nH]1)c1ccc2ccccc2n1,-3.5%,-4%,0%,3
COC(=O)c1ccccc1NC(=O)C1CCN(S(=O)(=O)c2cc(C)ccc2OC)CC1,0.3%,43%,-3%,?
CN(c1ccccc1)S(=O)(=O)c1ccc(Cl)c(C(=O)NCCc2c[nH]c3ccccc23)c1,-2.1%,8%,23%,-20
CCCC(C(=O)NCC1CCCO1)N(Cc1ccccc1)C(=O)CNS(=O)(=O)c1ccccc1 (centres undefined),-1.5%,1%,7%,·
COCCn1c(=S)[nH]c2cc(C(=O)NC(C)C)ccc2c1=O,-2.6%,15%,1%,-20
O=C(CSc1nnnn1C1CC1)N1CCN(c2ccccc2F)CC1,4.5%,-9%,·,·
CC(C)c1ccccc1OCCNC(=O)c1cccnc1,3.8%,-9%,0%,3
N#CCCN(C(=O)COC(=O)c1ccc(S(=O)(=O)N2CCCCCC2)cc1)c1ccccc1,?,-10%,·,·

# (next part)
mol,Rango-impB inh,Rango release inh,miR-21 FLuc,GLA inh pH 4.5
O=C(O)CCc1nc2cc3ccccc3cc2[nH]1,0.9%,-8%,-3%,1
O=C1COc2ccc(C(=O)CSc3nnc(NCc4ccccc4)s3)cc2N1,-1.6%,9%,6%,1
CC12CCC(=O)N1C(C(=O)NCCN1C(=O)S/C(=C\c3ccc(OC(F)F)cc3)C1=O)CS2 (centres undefined),1.0%,-8%,·,·
Cc1cc(C)cc(NC(=O)Nn2cnnc2)c1,-2.0%,9%,-1%,·
CC(Sc1nc2c(c(=O)[nH]1)CCCC2)C(=O)Nc1ccc(S(N)(=O)=O)cc1 (centres undefined),-0.7%,19%,7%,·
COC(=O)c1ccccc1N1CCS(=O)(=O)CC1,-0.1%,9%,0%,1
O=C(O)CCC(=O)Nc1ccc(N2CCCCCC2)cc1,-0.2%,8%,9%,-9
Cn1c(=O)[nH]c(=O)c2c1nc(CN1CCOCC1)n2CCCc1ccccc1,-0.3%,-4%,-11%,1
COCCn1c(SCC(=O)Nc2nnc(C)s2)nnc1-c1cc2ccccc2cc1O,0.4%,7%,-5%,-3
CCOC(=O)c1ccc(NC(=O)C2(c3ccc(OC)cc3)CCCC2)cc1,0.8%,5%,14%,-17
Nc1nc(C2CC2)c(Sc2sc(N)nc2C2CC2)s1,1.8%,4%,8%,-4
CCC(Oc1ccccc1)C(=O)N1CCN(CC)CC1 (centres undefined),0.1%,8%,-1%,7

# 3 structures already listed, sorted by formula weight, ascending:
mol,Rango-impB inh,Rango release inh,miR-21 FLuc,GLA inh pH 4.5
CCC(Oc1ccccc1)C(=O)N1CCN(CC)CC1 (centres undefined),0.1%,8%,-1%,7
CC(Sc1nc2c(c(=O)[nH]1)CCCC2)C(=O)Nc1ccc(S(N)(=O)=O)cc1 (centres undefined),-0.7%,19%,7%,·
COCCn1c(SCC(=O)Nc2nnc(C)s2)nnc1-c1cc2ccccc2cc1O,0.4%,7%,-5%,-3

# (continued)
mol,Rango-impB inh,Rango release inh,miR-21 FLuc,GLA inh pH 4.5
CC1O[C@@H](OC2C(O)C(C)O[C@H](OC(=O)[C@]34CCC(C)(C)C[C@H]3C3=CCC5[C@@]6(C)CC(O)C(O[C@@H]7OC(CO)C(O)[C@@H](O)[C@@H]7O)[C@@](C)(C(=O)O)C6CC[C@@]5(C)[C@]3(CO)CC4)C2O[C@H]2OC(C)[C@@H](O[C@@H]3OCC(O[C@@H]4OC(CO)C(O)[C@H](O)C4O)[C@@H](O)[C@@H]3O)[C@H](O)C2O)C(O)C(O)C1O (some centres undefined),-3.8%,-8%,·,·
Cc1cc(=O)[nH]c2c(C)cc(S(=O)(=O)Nc3ccc(O)cc3)cc12,0.0%,15%,1%,·
CC1Cc2ccccc2N1C(=S)NC(=O)c1ccc(Cl)cc1Cl (centres undefined),-6.8%,-14%,-3%,-13
CS(=O)(=O)N1CCC(C(=O)Nc2cc(Cl)c(Cl)cc2Cl)CC1,0.1%,5%,1%,·
NC(=O)C1CCN(c2nc(-c3ccc4occc(=O)c4c3)cs2)CC1,-4.1%,-25%,·,·
c1ccc(CC2CCN(c3ncnc4sccc34)CC2)cc1,-1.9%,-18%,10%,0
CS(=O)(=O)N(CC(=O)N1CCc2ccccc2C1)c1cccc(Br)c1,2.1%,5%,·,·
O=C(CNC(=O)OCc1ccccc1)NC1CCCCCC1,-1.2%,-4%,-7%,·
CC(C)Cn1c(-c2ccc(Cl)cc2)cnc1SCC(=O)N1CCOCC1,5.4%,0%,-7%,-7
CC(C)CCN1NC2(CCCC(C)C2)NC1=S (centres undefined),-0.4%,-13%,-15%,9
Cc1ccc(OCC(=O)Nc2ccc(O)c(-c3nc4ccccc4o3)c2)cc1,7.3%,24%,-2%,5
CCCc1[nH]nc2c1C(c1cccnc1)C(C#N)=C(N)O2 (centres undefined),-1.5%,-18%,0%,-2
CC(C)CC1NC(=O)N(CC(=O)N2CCN(S(=O)(=O)c3ccccc3)CC2)C1=O (centres undefined),2.2%,-10%,-2%,-8

# This is a subset, so the mix of outcomes need not match the whole.
